Insulin prom inh: inhibitors of insulin promoter-driven GFP, primary screen, imaging, TRM-6 cells (human fetal islet line), eGFP reporter, cell count. reporter expression induced with tamoxifen. inhibition, % at 2 µM. actives 0.9% (n = 130,000). AID 1273, 2008;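 active = inhibition above the mean plus 3 SD, with well images judged a real hit on visual review, cut at about 60% in these data, passing the limit was not always enough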
RGS16-Gao: modulators of RGS16 binding to Galphao, primary screen, biochemical, human proteins, multiplexed bead flow cytometry; bead-based flow cytometry RGS16-Galphao binding, fluorescence; actives lie on both sides; actives 0.38% (n = 220,000); AID 1441, 2008; Regulator of G-protein signaling 16 (Homo sapiens) + Guanine nucleotide-binding protein …; binding response (% of control), % at 10 µM;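 active = below 25% or above 175%, edge rows of some plates excepted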;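 also: Galphao activated by GDP with aluminum fluoride before binding; 100% = wells without compound and 0% = beads without RGS; some results beyond the cut were filed as inactive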
Target sequence (O15492 whole entry, looked up): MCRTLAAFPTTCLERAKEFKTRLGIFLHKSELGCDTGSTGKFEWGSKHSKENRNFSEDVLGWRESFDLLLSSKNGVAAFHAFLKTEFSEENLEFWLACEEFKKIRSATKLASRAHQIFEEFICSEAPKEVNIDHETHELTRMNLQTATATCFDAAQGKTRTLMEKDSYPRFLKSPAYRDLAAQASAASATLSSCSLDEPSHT
Target sequence (P09471 whole entry, looked up): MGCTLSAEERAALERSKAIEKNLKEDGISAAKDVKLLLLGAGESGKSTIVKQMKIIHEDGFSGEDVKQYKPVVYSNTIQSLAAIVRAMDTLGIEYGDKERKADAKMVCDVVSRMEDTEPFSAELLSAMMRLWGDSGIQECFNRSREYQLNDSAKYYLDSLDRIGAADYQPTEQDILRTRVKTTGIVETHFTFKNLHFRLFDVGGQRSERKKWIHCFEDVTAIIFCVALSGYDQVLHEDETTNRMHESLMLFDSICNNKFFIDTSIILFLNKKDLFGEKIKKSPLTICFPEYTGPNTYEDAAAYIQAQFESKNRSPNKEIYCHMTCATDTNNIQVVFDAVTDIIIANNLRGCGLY
PKD1 inh: inhibitors of human PKD1 kinase, biochemical, fluorescence polarization. Serine/threonine-protein kinase D1 (Homo sapiens), Q15139. inhibition, %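 (about 10 µM by stock and volumes)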. PKD1 kinase fluorescence polarization assay. actives 0.056% (n = 200,000);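 active = inhibition of 50% or more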;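 also: controls were vehicle for no effect and a reference inhibitor for full effect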
HSV augment: enhancers of HSV replication in host cells, fold increase, host cell viability. HSV replication augmentation in cells. maximum fold increase. actives 0.005% (n = 220,000). AID 1956, 2009;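 active = peak rise of 1.5-fold or more in the series; tested in PC3 cells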;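 also: first round at 10 µM; read as green reporter fluorescence; hits show the peak of a series up to 25 µM; 1 = signal of infected wells without compound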
GALR2 agonist: GALR2 receptor agonists, primary screen, cell-based | activation, %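 (tested at 5 µM)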 | actives 0.48% (n = 140,000) | Galanin receptor type 2 (Homo sapiens), O43603 | GALR2-expressing cells, agonist activation read-out;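 active = above mean plus 3 SD of all compounds, about 5% in these data, not always enough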;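 also: 0% = vehicle buffer wells and 100% = reference agonist at full effect; tested in CHO reporter cells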
Target sequence (O43603 whole entry, looked up): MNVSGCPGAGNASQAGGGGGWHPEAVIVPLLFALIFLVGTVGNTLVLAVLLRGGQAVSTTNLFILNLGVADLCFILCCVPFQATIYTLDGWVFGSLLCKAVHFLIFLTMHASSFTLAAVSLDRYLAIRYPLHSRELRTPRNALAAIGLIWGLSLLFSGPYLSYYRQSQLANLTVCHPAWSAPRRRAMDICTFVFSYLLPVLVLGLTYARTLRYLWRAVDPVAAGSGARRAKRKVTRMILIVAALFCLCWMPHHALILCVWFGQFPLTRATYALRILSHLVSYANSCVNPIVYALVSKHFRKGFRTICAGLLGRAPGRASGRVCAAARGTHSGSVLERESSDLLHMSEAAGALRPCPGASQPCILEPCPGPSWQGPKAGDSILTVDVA
Insulin prom inh cell count: recorded beside Insulin prom inh, whose call it bears; normalized cell count, %; measured here: cell count, toxicity; reference of the scale not given here;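 cells exposed to compound for 48 h; stained nuclei by imaging scaled within each plate; lower means fewer cells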
HSV augment primary fold: recorded beside HSV augment, whose call it bears; fold increase; compound at 10 µM; measured here: primary screen fold increase 10 uM; tested in PC3 cells;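 GFP signal in the first replicate; 1 = infected wells without compound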
An asterisk follows results filed as active; i = inactive; . = not tested or not shown; [ ] = another dose, or the depositor's remark.

SMILES	Insulin prom inh	Insulin prom inh cell count	RGS16-Gao	PKD1 inh	HSV augment	HSV augment primary fold	GALR2 agonist
Cc1cc(C(=O)Nc2sc3c(c2C#N)CCC(C)C3)cs1 (centres undefined)	0	45	101	4	i	0.93	-0.1
CCOC(=O)c1sc2nc3c(cc2c1N)COC(C(C)C)C3 (centres undefined)	-31	110	107	-3	i	0.76	-2.6
COc1ccccc1CC(NC(C)=O)C(=O)NC1CCN(C(=O)Nc2ccccc2Cl)CC1 (centres undefined)	.	.	98	3	i	0.92	.
O=S(=O)(NCc1ccc(Cl)cc1)c1cnc[nH]1	44	81	7	4	i	1	-1.0
Cc1ccc(NC(=O)Cn2nnc(-c3ccccc3NC(=O)c3cccs3)n2)cc1	-14	78	100	-4	i	0.47	-2.5
COc1ccc(N2CCN(CCNC(=O)C3CC(=O)N(C4CCCC4)C3)CC2)cc1 (centres undefined)	16	99	101	-2	i	1	-0.6
CCOC(=O)C(NCCOC)(NC(C)=O)C(F)(F)F (centres undefined)	.	.	98	.	i	1.1	.
N#CNC1=NCN(CCc2ccccc2)CN1	.	.	96	-7	i	0.91	-1.7
CCOC(=O)Cn1cc(/C=C(/C#N)C(=O)NC(C)C)c2ccccc21	.	.	98	-3	i	0.81	.
CCOC(=O)c1c(C)nc2sc(C(=O)Nc3ccccc3)c(N)c2c1-c1ccc(OC)cc1	-23	85	102	2	i	1.1	3.6
O=C1CN(C(=O)c2cc3ccccc3oc2=O)C(c2ccccc2)c2cc(F)ccc2N1 (centres undefined)	-25	108	105	-8	.	.	1.2
Cc1nc(N2CCN(Cc3ccccc3)CC2)nc2c1C(=O)CC(c1ccco1)C2 (centres undefined)	.	.	98	1	i	0.84	0.2
COc1ccc(N2CC(C(=O)Nc3ccc(S(=O)(=O)Nc4nc(C)cc(C)n4)cc3)CC2=O)cc1 (centres undefined)	48	118	96	-6	i	1.1	-2.1
COc1ccc(OCCSc2nnc(CCNC(=O)c3ccc(Cl)c(Cl)c3)n2C)cc1	-158	75	106	3	i	0.94	-1.9
COc1ccc(C(=O)N/C(=C/c2cccs2)c2nc3ccccc3[nH]2)cc1OC	-12	125	96	-4	i	0.93	-1.1
CC(C)(C)C(O)CN1CCCC1 (centres undefined)	13	132	96	4	i	0.92	.
CC(=O)c1ccc(O)c(CSc2nncn2C)c1	-100	93	108	0	i	0.98	.
CN(C(=O)c1cc(-n2cnnc2)ccc1Cl)c1ccccc1	14	90	110	6	i	1	0.1
CCCC(=O)Nc1nc2c(c(=O)[nH]1)CCCC2	-7	125	101	-2	i	0.99	-1.8
O=C(/C=C/c1ccc2ccccc2c1)c1ccoc1	-13	116	88	-9	i	0.93	-1.2
Cc1ccc(SCc2cc(=O)[nH]c(N3CCN(C)CC3)n2)cc1	53	52	136	-5	i	1	-3.0
CC1CN(S(=O)(=O)c2ccc(-c3nc4ccccc4s3)cc2)CC(C)O1 (centres undefined)	26	125	105	-19	i	1.1	-0.5
N/C(=N/O)c1nc(N2CCCC2)nc(N(c2ccccc2)c2ccccc2)n1	-71	72	103	-4	i	0.93	0.1
CCC(=O)Nc1cc(-c2nn(CC(=O)N3CCCCC3)c(=O)c3ccccc23)ccc1N1CCOCC1	-3	134	108	-4	i	0.83	0.6
NC(=S)N=Nc1c(O)[nH]c2ccccc12	-17	115	103	-7	i	0.98	-0.3

Additional entries:
SMILES	Insulin prom inh	Insulin prom inh cell count	RGS16-Gao	PKD1 inh	HSV augment	HSV augment primary fold	GALR2 agonist
O=C1c2ccccc2NC(c2ccccc2Cl)N1N=C1CCCCCC1 (centres undefined)	12	130	105	-8	i	0.94	-1.3
C=CCOc1ccccc1CN1CCSCC1	.	.	104	0	i	1.1	-3.4
O=C(Nn1c(-c2ccccc2)nc2ccccc2c1=O)C1CCC1	.	.	101	-11	i	0.8	-0.9
COc1ccc(CCNC(=O)C2CC(=O)N(c3ccc(F)cc3)C2)cc1OC (centres undefined)	.	.	111	9	i	0.87	-0.2
CC(O)CNc1ccc([N+](=O)[O-])cc1S(=O)(=O)N1CCOCC1 (centres undefined)	-14	228	110	-5	i	0.9	.
On1c2c(c3c4nonc4ccc31)CCCC2	14	144	98	11	i	0.99	1.0
c1csc(CNCCCN2CCOCC2)c1	-3	147	105	-4	i	0.95	-1.2
CC1=CC(=C(C#N)C#N)C=C(C)N1CCN1CCNCC1	-7	101	104	-5	i	0.97	.
Clc1cccc(Cl)c1Cn1cnc2c(NCc3ccco3)ncnc21	10	96	-714	-9	i	0.79	-2.8
COc1ccc(NC(=O)NCc2cccn2C)c(OC)c1	.	.	97	-7	i	1.1	-0.5
CC1Nc2ccccc2C(=O)N1NS(=O)(=O)c1ccccc1 (centres undefined)	-11	93	102	-3	i	0.96	-0.6
Cc1ccc(N(CC(=O)Nc2ccc3c(c2)OCCO3)S(C)(=O)=O)cc1	.	.	101	-8	i	0.98	.
CCOC(=O)c1ccc(N2NC(=O)/C(=C/c3ccc(OC(=O)c4ccco4)c(OC)c3)C2=O)cc1	-8	82	165	-6	i	1.1	-1.5
CC(=O)Nc1cc(Br)ccc1O	.	.	96	5	i	1	.
Clc1ccc(Cn2cccn2)cn1	.	.	109	-3	i	1	.
Cc1nc(C(=O)N(C)C)nn1-c1ccc([N+](=O)[O-])cc1	24	66	96	4	i	1	.
N#CCCn1c(O)c(N=NC(=O)CNC(=O)c2cccs2)c2ccccc21	.	.	109	.	i	0.9	.
Clc1ccc(N/N=C/c2ccncc2)cc1Cl	-7	69	199*[activator]	4	i	1.2	-1.1
CCOC(=O)c1cccc(Nc2ncnc3ccccc23)c1	-11	69	104	-2	i	0.83	-2.5
O=C(N/N=C/C=C/c1ccccc1)c1ccc(Br)cc1	-10	121	99	-1	i	0.96	-1.1
Fc1ccc(/C=N/NC(=S)Nc2cccnc2)cc1F	.	.	101	-11	i	0.93	.
COc1nc(Oc2ccc(/C=N/O)cc2)nc(N(C)C)n1	-8	87	101	3	i	0.94	-2.2
O=C(Nc1nc2ccccc2s1)Nc1ccc([N+](=O)[O-])cc1Cl	.	.	93	.	i	0.84	.
CCOc1cc(/C=C(\C#N)C(=O)NCC2CCCO2)ccc1OCC(N)=O (centres undefined)	-7	74	109	4	i	1	.
COc1ccc(CN(C)C(=S)Nc2ccc(Cl)cc2Cl)cc1	.	.	97	-5	i	0.93	.

Shown with values under each structure: four of the compounds above.
Every second line gives: Insulin prom inh, Insulin prom inh cell count, RGS16-Gao, PKD1 inh, HSV augment, HSV augment primary fold, GALR2 agonist
- Cc1nc(C(=O)N(C)C)nn1-c1ccc([N+](=O)[O-])cc1
 : 24, 66, 96, 4, i, 1, .
- CCOC(=O)c1ccc(N2NC(=O)/C(=C/c3ccc(OC(=O)c4ccco4)c(OC)c3)C2=O)cc1
 : -8, 82, 165, -6, i, 1.1, -1.5
- COc1ccc(CN(C)C(=S)Nc2ccc(Cl)cc2Cl)cc1
 : ., ., 97, -5, i, 0.93, .
- COc1ccc(N2CCN(CCNC(=O)C3CC(=O)N(C4CCCC4)C3)CC2)cc1 (centres undefined)
 : 16, 99, 101, -2, i, 1, -0.6

Entries of single compounds from above.
Cc1nc(N2CCN(Cc3ccccc3)CC2)nc2c1C(=O)CC(c1ccco1)C2 (centres undefined) as listed: Insulin prom inh: .; Insulin prom inh cell count: .; RGS16-Gao: 98; PKD1 inh: 1; HSV augment: i; HSV augment primary fold: 0.84; GALR2 agonist: 0.2
CC(C)(C)C(O)CN1CCCC1 (centres undefined) as listed: Insulin prom inh: 13; Insulin prom inh cell count: 132; RGS16-Gao: 96; PKD1 inh: 4; HSV augment: i; HSV augment primary fold: 0.92; GALR2 agonist: .

Later entries
SMILES	Insulin prom inh	Insulin prom inh cell count	RGS16-Gao	PKD1 inh	HSV augment	HSV augment primary fold	GALR2 agonist
O=[N+]([O-])c1cccc(-c2ccc(C(=S)N3CCN(c4ccccc4)CC3)o2)c1	.	.	95	.	i	0.94	.
Cc1ccc(NC(=O)C2C3CCCC2C3c2ccccc2)cc1C (centres undefined)	6	151	104	-5	i	0.93	-1.4
O=C(CCN1CCN(c2ccccc2)CC1)Nc1ccccc1F	45	152	111	2	i	0.97	-2.2
CCOC(=O)N1CCC(N2CCN(Cc3ccccc3)C(CCO)C2)CC1 (centres undefined)	21	133	104	4	i	0.74	.
Brc1ccc(C2=Nn3c(nnc3-c3n[nH]c4c3CCC4)SC2)cc1	i	8	106	0	i	0.74	4.5
O=C(O)c1ccccc1N/N=C/C1=C(N2CCOCC2)C(=C\c2ccccc2)/CC1	.	.	101	.	i	1.2	.
CCCn1c(SCc2nc3sc(C)c(C)c3c(=O)[nH]2)nc2ccccc2c1=O	.	.	98	-17	i	0.88	-2.7
O=C(NCCN1CCN(c2cccc(Cl)c2)CC1)C1CCCN(S(=O)(=O)c2cnc[nH]2)C1 (centres undefined)	.	.	203	-6	i	0.99	-1.4
CC(=O)c1cccc(NC(=O)c2ccc(S(=O)(=O)N3CCCCC3)cc2)c1	-105	134	98	1	i	0.93	-1.9
CC(C)(C)c1cn(-c2ccccc2)c(=S)[nH]1	-20	97	96	0	i	1	-0.6
Cc1ccc(CNC(=O)c2ccc3c(=O)n4c(-c5ccc(C)cc5)csc4nc3c2)cc1	.	.	109	.	i	0.84	.
Cc1sc(NC(=O)CN(CCc2ccccc2)C(=O)C2CC2)c(C(N)=O)c1C	.	.	107	5	i	0.99	.
CCOc1ccc(OCC(=O)c2c(O)c3ccccc3oc2=O)cc1	-50	56	104	-3	i	0.79	-1.8
Cc1ccc(/C=C2\SC(=S)N(CCC(=O)NNS(=O)(=O)c3ccc(C)cc3)C2=O)cc1	.	.	91	-4	i	0.88	-0.7
CC(C)N1C(=O)CCC1C(=O)N1CCCc2ccccc21 (centres undefined)	.	.	102	-11	i	1	-3.8
CCn1c2ccccc2c2cc(NC(=O)COC(=O)c3cc(S(N)(=O)=O)c(Cl)cc3Cl)ccc21	.	.	112	-13	i	1	.
N=c1ncn(Cc2ccccc2)c2nc(SCCOc3ccccc3)[nH]c12	.	.	100	-20	i	0.97	0.9
O=C(c1ccco1)N1CCN(Cc2nc3cc(Cl)ccc3c(=O)[nH]2)CC1	7	133	99	2	i	1.1	.
COCCn1c(-c2ccccc2)nc(=S)c2c1CC(C)(C)OC2	-49	114	105	4	i	0.97	-1.4
C[n+]1cc(-c2ccccc2)n2c1CCCCC2	-3	148	74	2	i	0.89	-1.0
CCCC(=O)Nc1cc(Cl)ccc1N1CCN(C(=O)CC)CC1	-6	128	101	-3	i	0.69	-1.0
CC(Oc1ccc2oc(-c3ccccc3)c(C(=O)O)c2c1)C(=O)O (centres undefined)	15	107	90	0	i	0.83	-2.7
Cc1cccn2cc(CNC(=O)C3CCCCC3)nc12	-53	124	103	-9	i	0.95	-0.2
O=C(Nc1nnc(COc2ccc(Cl)cc2)s1)c1ccco1	.	.	67	8	i	0.96	.
COc1ccc(N=C2SC(C(=O)Nc3ccc4c(c3)OCO4)CC(=O)N2C)cc1 (centres undefined)	.	.	97	-2	i	0.83	-1.4
COc1ccc(-c2noc(-c3cc(C)cc(C)c3)n2)cc1OC	.	.	114	-3	i	0.98	-1.8
O=C(CCN1C(=O)C2C3CCC(C3)C2C1=O)OCC(=O)c1cccc([N+](=O)[O-])c1 (centres undefined)	25	118	112	-12	i	0.93	-0.2
Cc1ccc(C)c(NS(=O)(=O)c2ccc(NC(=O)CSc3ccc(Cl)cc3)cc2)c1	15	128	103	-3	i	1	-1.0
CC(=O)Nc1ccc(SC[C@H](Cc2ccccc2)N2CCN(CC(C)C)CCC2=O)cc1	.	.	97	.	i	0.8	.

Four records picked at random from those above:
SMILES	Insulin prom inh	Insulin prom inh cell count	RGS16-Gao	PKD1 inh	HSV augment	HSV augment primary fold	GALR2 agonist
O=C(NCCN1CCN(c2cccc(Cl)c2)CC1)C1CCCN(S(=O)(=O)c2cnc[nH]2)C1 (centres undefined)	.	.	203	-6	i	0.99	-1.4
CC(C)(C)c1cn(-c2ccccc2)c(=S)[nH]1	-20	97	96	0	i	1	-0.6
Cc1ccc(NC(=O)C2C3CCCC2C3c2ccccc2)cc1C (centres undefined)	6	151	104	-5	i	0.93	-1.4
Cc1ccc(/C=C2\SC(=S)N(CCC(=O)NNS(=O)(=O)c3ccc(C)cc3)C2=O)cc1	.	.	91	-4	i	0.88	-0.7

4 of the entries above in order of the RGS16-Gao value, high to low:
compound	RGS16-Gao
CCCC(=O)Nc1cc(Cl)ccc1N1CCN(C(=O)CC)CC1	101
N=c1ncn(Cc2ccccc2)c2nc(SCCOc3ccccc3)[nH]c12	100
Cc1ccc(/C=C2\SC(=S)N(CCC(=O)NNS(=O)(=O)c3ccc(C)cc3)C2=O)cc1	91
O=C(Nc1nnc(COc2ccc(Cl)cc2)s1)c1ccco1	67

Screens as filed in PubChem.
